Bioassay records: PubChem, Broad Institute
rRNA inh HTS = reduced GFP signal of wild-type E. coli, primary screen, bacterial rRNA inhibitor project, GFP/RFP fluorescence, OD600, single point; E. coli WT GFP vs humanized-ribosome RFP mutants, 24 h; hits give low values; DMSO median 0, no signal -100; GFP signal change (wild-type ribosome), % (test concentration not listed); 350,000 compounds, 1.6% hits; AID 720706, 2013;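 active = significant combined selectivity score with lowered wild-type GFP, culture density cut under 30%, mutant RFP and density less affected; inactive = any of these conditions unmet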; note: one replicate is shown; some compounds called inactive have numbers as strong as hits
rRNA inh HTS OD600 = recorded beside rRNA inh HTS, whose call it bears; OD600 change, %; measured here: OD600 growth;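 optical density of the mix in the first replicate; 0 = DMSO median and -100 = no signal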
rRNA inh HTS RFP = second read-out of rRNA inh HTS, no call of its own (marks repeat the call); RFP signal change, %; measured here: RFP humanized mutant strains;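 first replicate; 0 = DMSO median and -100 = no signal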
An asterisk follows results filed as active; & = joins results of further samples.

rRNA inh HTS	rRNA inh HTS OD600	rRNA inh HTS RFP	SMILES
-59.0	-62.8	-31.3	CC(=O)c1ccc2c(c1)N(Cc1ccccc1Cl)C(=O)C(C)S2 (stereo unspecified)
1.2	-1.5	1.3	O=C(O)C[C@H]1CC[C@@H](NC(=O)Nc2ccccc2)[C@H](CO)O1
1.1	11.6	-1.7	CC=Cc1ccc2n(c1=O)C[C@@H]1[C@@H](CO)[C@H](C(=O)NCCCN3CCOCC3)N(C)[C@H]21 (mixture of isomers)
1.9	8.8	0.2	Cc1noc(C)c1S(=O)(=O)Nc1ccc2c(c1)C(=O)N([C@H](C)CO)C[C@@H](C)[C@@H](CN(C)CC1CC1)O2
4.2	0.0	-2.0	C[C@H](CO)N1C[C@H](C)[C@@H](CN(C)C(=O)CN(C)C)Oc2cc(-c3ccncc3)ccc2S1(=O)=O
1.9&1.4	6.3&-3.4	-1.5&2.0	CS(=O)(=O)Nc1ccc2c(c1)[C@H]1C[C@H](CC(=O)NCc3cccc(F)c3)O[C@@H](CO)[C@H]1O2
2.1	1.4	-0.3	CN1C(=O)c2cc(NC(=O)Nc3ccccc3F)ccc2OC[C@@H]2O[C@@H](CC(=O)NCCc3ccncc3)CC[C@@H]21
-2.4	5.1	-4.0	C[C@H](CO)N1C[C@H](C)[C@@H](CN(C)Cc2cccc(C(=O)O)c2)OCc2ccccc2-c2c(n(C)c3ccccc23)C1=O
-18.5	-9.6	-3.2	O=C(Nc1ccc(F)c(Cl)c1)c1csc(COCCO)n1
1.2	20.5	-2.9	O=C(c1ccccn1)N1CC2(C1)[C@@H](c1ccccc1)[C@H](CO)N2C(=O)C1CCC1
5.0	7.4	0.2	Cc1ccc(S(=O)(=O)Nc2ccc3c(c2)C(=O)N([C@@H](C)CO)C[C@H](C)[C@@H](CN(C)C(=O)Nc2c(C)noc2C)OCCCC[C@@H](C)O3)cc1
-0.9	14.9	-4.5	O=C1N[C@@H](c2ccccc2)COCc2cn(nn2)CC[C@@H]1Cc1ccc(C(F)(F)F)cc1
-2.2	-1.8	-3.0	C[C@@H]1CN([C@@H](C)CO)C(=O)c2c(c3ccccc3n2C)-c2ccccc2CO[C@@H]1CN(C)S(=O)(=O)c1cn(C)cn1
-3.0	-1.4	-3.5	COc1ccc(NC(=O)C[C@H]2C(=O)N(c3ccc(OC)cc3)C[C@@H]2C)cc1
-0.6	1.9	0.2	COc1ccccc1S(=O)(=O)N[C@@H]1CC[C@H](CCNC(=O)C2CCC2)O[C@@H]1CO
-1.7	0.2	1.6	OC[C@@H]1CN(Cc2ccco2)C[C@H](n2cnc3c(Nc4ccccc4)ncnc32)O1
0.8	1.9	-0.5	C[C@@H]1CN([C@H](C)CO)C(=O)c2cc(NC(=O)Nc3ccc(F)cc3)ccc2O[C@@H](C)CCCCO[C@H]1CN(C)S(=O)(=O)c1ccc(F)cc1
-27.7	-23.0	4.8	C[C@@H]1ON(C)[C@H]2C[C@H]3c4[nH]c5c(-c6cccc(Cl)c6)cccc5c4CCN3C(=O)[C@@H]12
1.0	14.2	-3.6	CC(C)NC(=O)Nc1ccc2c(c1)C(=O)N([C@H](C)CO)C[C@@H](C)[C@H](CN(C)C(=O)CCC(F)(F)F)OCCCC[C@@H](C)O2
1.7	3.8	2.1	COc1cccc(NC(=O)N[C@H]2C=C[C@@H](CC(=O)N3CCN(C)CC3)O[C@H]2CO)c1
5.0&5.4	13.6&3.6	12.6&1.2	CCCC#Cc1ccc2c(c1)O[C@@H](CN(C)Cc1ccc3c(c1)OCO3)[C@H](C)CN([C@@H](C)CO)S2(=O)=O
2.0	7.2	-1.7	COCCNC(=O)[C@H]1[C@H](CO)[C@H]2Cn3c(cccc3=O)[C@@H]1N2S(=O)(=O)c1ccccc1C
1.1	5.8	1.2	C[C@H]1CN([C@@H](C)CO)C(=O)c2cc(NC(=O)Cn3cnnn3)ccc2O[C@H]1CN(C)C(=O)NC1CCCCC1
-17.0	-40.3	17.9	O=C(Nc1ccccc1F)N1CCCCN2[C@H](C1)[C@@H](c1ccc(C#Cc3cccnc3)cc1)[C@@H]2CO
2.2	4.3	-0.4	C[C@@H]1CCCCO[C@@H](CN(C)S(=O)(=O)c2ccc(Cl)cc2)[C@@H](C)CN([C@@H](C)CO)C(=O)c2cc(NC(=O)Nc3cccc4ccccc34)ccc2O1
1.6	-3.7	4.3	CNC(=O)C[C@@H]1CC[C@H]2[C@H](COc3ccc(NC(=O)Nc4cccc(Cl)c4)cc3C(=O)N2C)O1
-2.0	-2.4	-0.9	C[C@H]1CN([C@@H](C)CO)C(=O)c2cc(C3=CCCC3)cnc2O[C@H]1CN(C)C(=O)Nc1cccc(F)c1
-8.2	-30.5	13.2	N#Cc1cccc(-c2ccc3c(c2)[C@H]2[C@H](CCN2C(=O)c2ccc4c(c2)OCO4)[C@@H](CO)N3)c1
7.9	13.0	-0.9	CC1=C(C(=O)N(C(C)C)C(C)C)CC(CC(=O)NC2CC2)C(=O)N1Cc1ccc(F)cc1 (stereo unspecified)
7.4	0.9	0.4	CC(=O)OCC(=O)N1CCN(C(=O)C(=O)c2cccc(C(F)(F)F)c2)CC1

Additional records follow.
rRNA inh HTS	rRNA inh HTS OD600	rRNA inh HTS RFP	SMILES
4.1	2.5	1.4	C/C=C/c1ccc([C@@H]2[C@@H](C#N)N(C(=O)c3cccnc3)[C@@H]2CO)cc1
1.4	9.1	0.7	CCS(=O)(=O)N[C@@H]1CC[C@@H](CC(=O)NCc2ccc(Cl)cc2)O[C@@H]1CO
-1.3	-6.7	-1.2	O=C(Cc1cccnc1)N1CC2(C1)[C@@H](c1ccccc1)[C@@H](CO)N2C(=O)C1CCCC1
0.1	5.3	-2.2	C[C@H]1CN([C@@H](C)CO)C(=O)c2cc(-c3cccnc3)cnc2O[C@H]1CN(C)C(=O)Nc1ccc(F)cc1
-57.6	-79.3	-14.8	Cc1cccc(-c2ccc(C3[C@@H]4CN(C(=O)Nc5ccc(F)cc5)C[C@H]3N4)cc2)c1 (stereo partly specified)
1.0	-1.1	-1.3	O=C(Cc1ccccn1)NCC[C@H]1CC[C@@H](NC(=O)Nc2ccc(F)cc2)[C@H](CO)O1
-0.5	-3.5	2.0	C[C@@H]1CN([C@H](C)CO)C(=O)Cc2cc(NS(=O)(=O)c3ccc(F)cc3)ccc2O[C@@H]1CN(C)Cc1ccc(Oc2ccccc2)cc1
2.8	6.9	-1.1	C[C@@H]1CN([C@H](C)CO)C(=O)c2cc(C#C[C@@H](C)O)cnc2O[C@@H]1CN(C)C(=O)Cc1ccncc1
-2.4	-11.9	15.6	Cc1cccc(S(=O)(=O)N2CCCCN3[C@H](CO)[C@H](c4ccc(C#C[C@@H](C)O)cc4)[C@@H]3C2)c1
-0.7	2.2	-3.2	CN1c2ccc(-c3ccccc3F)cc2[C@H]2[C@H](CCN2C(=O)CN2CCOCC2)[C@@H]1CO
0.4	-2.9	-1.6	CN1CCN(c2ccc(CNC(=O)C3Cc4c(-c5ccccc5)ccnc4O3)cc2)CC1 (stereo unspecified)
-3.3	6.3	1.2	CC(C)NC(=O)N(C)C[C@@H]1OCCCC[C@@H](C)Oc2ccc(NS(=O)(=O)c3ccccc3)cc2C(=O)N([C@H](C)CO)C[C@H]1C
-3.2	7.2	0.0	C[C@@H]1CN([C@H](C)CO)C(=O)c2cccc(NS(=O)(=O)c3ccc(F)cc3)c2O[C@H]1CN(C)C(=O)NC1CCCCC1
-3.5	9.0	-0.8	COc1ccc(NC(=O)N(C)C[C@@H]2Oc3cc(-c4cccc(C(=O)N(C)C)c4)ccc3S(=O)(=O)N([C@@H](C)CO)C[C@@H]2C)cc1
2.0	2.9	-1.0	CCCNC(=O)C[C@H]1CC[C@H]2[C@@H](COC[C@@H](O)CN2C(=O)Nc2c(C)noc2C)O1
0.0	-2.8	-2.2	C[C@@H]1CN([C@@H](C)CO)C(=O)c2cc(NC(=O)Cc3ccccc3)ccc2O[C@H]1CN(C)S(=O)(=O)c1ccc(F)cc1
-10.5&-3.9	-15.1&5.6	-0.5&-1.4	C[C@@H]1CN([C@@H](C)CO)S(=O)(=O)c2ccc(Br)cc2O[C@H]1CN(C)C(=O)c1ccccc1F
6.5	13.6	-0.2	C[C@H](CO)N1C[C@H](C)[C@H](CN(C)C(=O)C2CC2)Oc2ncc(/C=C/c3ccccc3)cc2C1=O
5.4	2.7	0.0	CCNC(=O)C[C@H]1CC[C@H]2[C@@H](COc3ccc(NC(=O)Nc4c(C)noc4C)cc3C(=O)N2C)O1
-8.9	-11.9	0.3	C[C@H](CO)N1C[C@H](C)[C@@H](CN(C)S(=O)(=O)c2ccc(F)cc2)OCCCC[C@H](C)Oc2ccc(NS(=O)(=O)c3cccs3)cc2C1=O
-4.3	8.8	1.2	C[C@H]1CN([C@@H](C)CO)C(=O)c2cc(C3=CCCC3)cnc2O[C@@H]1CN(C)C(=O)C1CCC1
-5.4	9.6	1.1	Cn1cnc(S(=O)(=O)N2C[C@H](O)COC[C@H]3O[C@@H](CC(=O)N4CCN(c5ccccc5)CC4)CC[C@@H]32)c1
-5.3	-7.0	3.1	CCCC(=O)Nc1ccc2c(c1)C(=O)N(C)C[C@@H](OC)[C@H](C)CN(Cc1cc(-c3ccccc3)on1)[C@H](C)CO2
0.2	-0.7	1.5	O=C(NC1Cc2ccccc2C1)[C@@H]1N[C@@H]2c3ccc(C4=CCCC4)c(=O)n3C[C@@H]2[C@H]1CO
1.3	-1.1	0.0	O=C(CCN1CCCCC1)NCC[C@@H]1CC[C@H](NC(=O)C2CCOCC2)[C@@H](CO)O1
1.2	6.1	-0.1	CCCNC(=O)N1CC2(CN(CC3CC3)C2)c2c(n(C)c3cc(OC)ccc23)[C@H]1CO
0.5	2.7	0.8	COc1ccc(NC(=O)Nc2ccc3c(c2)C(=O)N([C@H](C)CO)C[C@@H](C)[C@H](CN(C)S(=O)(=O)c2c(C)noc2C)OCCCC[C@H](C)O3)cc1
4.8	6.9	-1.8	C[C@@H](NC(=O)[C@H]1[C@H](CO)[C@H]2Cn3c(cccc3=O)[C@H]2N1CC1CC1)c1ccccc1
-1.4	2.6	-0.2	Cc1noc(C)c1S(=O)(=O)Nc1cccc2c1O[C@@H](CN(C)S(=O)(=O)c1ccccc1)[C@@H](C)CN([C@@H](C)CO)C2=O
0.7	-10.8	0.4	CCC(=O)N1CC2(C1)[C@@H](c1ccc(-c3ccc(F)cc3)cc1)[C@@H](CO)N2S(C)(=O)=O

One compound at a time (already shown). Order of values: rRNA inh HTS, rRNA inh HTS OD600, rRNA inh HTS RFP
Shown for C[C@@H](NC(=O)[C@H]1[C@H](CO)[C@H]2Cn3c(cccc3=O)[C@H]2N1CC1CC1)c1ccccc1 : 4.8, 6.9, -1.8
Shown for C[C@H]1CN([C@@H](C)CO)C(=O)c2cc(C3=CCCC3)cnc2O[C@@H]1CN(C)C(=O)C1CCC1 : -4.3, 8.8, 1.2
Shown for CCNC(=O)C[C@H]1CC[C@H]2[C@@H](COc3ccc(NC(=O)Nc4c(C)noc4C)cc3C(=O)N2C)O1 : 5.4, 2.7, 0.0

Next part:
rRNA inh HTS	rRNA inh HTS OD600	rRNA inh HTS RFP	SMILES
-2.9	13.7	-4.2	COCC(=O)N1C[C@@H]2[C@H](c3ccccc31)[C@@H](CO)N2Cc1ccccc1
0.1	-2.1	0.2	COc1ccc(NC(=O)N(C)C[C@@H]2OCCCC[C@@H](C)Oc3ccc(NC(=O)Nc4c(C)noc4C)cc3C(=O)N([C@H](C)CO)C[C@H]2C)cc1
0.9	-0.1	-0.7	CO[C@@H]1CC[C@H]2CCN(C)C(=O)[C@H](C)N(C)C(=O)c3cccc(C#N)c3OC[C@@H]1O2
-1.9	3.1	-2.7	COCC(=O)N(C)C[C@@H]1[C@H](c2ccc(-c3ccccc3)cc2)[C@@H](CO)N1C(C)=O
-3.7	-0.4	1.4	C[C@H](CO)N1C[C@H](C)[C@H](CN(C)S(=O)(=O)c2ccc(F)cc2)Oc2c(NC(=O)c3nc4ccccc4s3)cccc2C1=O
2.1	4.0	-0.7	COC(=O)[C@@H]1[C@@H](CO)[C@@H]2Cn3c(ccc(-c4ccccc4F)c3=O)[C@@H]2N1C(=O)c1cnccn1
8.5&1.9	16.9&0.9	0.3&-0.2	C[C@@H]1CN([C@H](C)CO)C(=O)CCCn2cc(nn2)CO[C@H]1CN(C)S(C)(=O)=O

Shown with each value named: entries from further up.
COCC(=O)N(C)C[C@@H]1[C@H](c2ccc(-c3ccccc3)cc2)[C@@H](CO)N1C(C)=O
  rRNA inh HTS: -1.9 | rRNA inh HTS OD600: 3.1 | rRNA inh HTS RFP: -2.7

C[C@H](CO)N1C[C@H](C)[C@H](CN(C)S(=O)(=O)c2ccc(F)cc2)Oc2c(NC(=O)c3nc4ccccc4s3)cccc2C1=O
  rRNA inh HTS: -3.7 | rRNA inh HTS OD600: -0.4 | rRNA inh HTS RFP: 1.4

COC(=O)[C@@H]1[C@@H](CO)[C@@H]2Cn3c(ccc(-c4ccccc4F)c3=O)[C@@H]2N1C(=O)c1cnccn1
  rRNA inh HTS: 2.1 | rRNA inh HTS OD600: 4.0 | rRNA inh HTS RFP: -0.7

An excerpt, so the mix of outcomes need not match the whole.
